Compound activity (PubChem)
gsp antagonist: gsp mutant antagonism; gsp-mutant cells, cAMP HTRF, 30 min; control for the full effect not named in the record; Potency, µM (titrated, usually from 76.9 µM), for inactives: top-dose activity change, negative = inhibition, actives largely listed as inhibitors; 340,000 tested, 0.4% active; active = falling curve of any shape with a large fitted effect; inconclusive = falling curve, mostly with a smaller effect; inactive = flat or rising curve; cell line not stated here;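 note: intracellular cAMP measured with PDE inhibitor Ro 20-1724 present during compound exposure; potency is the fitted concentration of half-maximal effect; % is set by controls: 0 for no effect and ±100 for the full control effect; nearly all actives have a fitted effect of over 65% in size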
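Cells, 2000/well, grown 16–24 h in DMEM 10% FBS with 0.5 mg/ml G418, then compounds plus […] (300 uM addition stock), 30 min at 37C. cAMP read by HTRF (cAMP-d2 and anti-cAMP antibody-K in lysis buffer) after 30 min RT.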
Menin-MLL FL inh: inhibitors of human menin-MLL interaction, wild-type MLL peptide; Fluorescence polarization, fluorescein-MLL peptide displacement from menin; FP activity change, % at 61.4 µM; 290,000 tested, under 10 active; inconclusive = falling polarisation curve, or a change in total fluorescence; inactive = total fluorescence flat and polarisation flat or rising; no compound was filed as active; the % refers to the polarisation; negative = inhibition;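 note: % of control where 0% means no effect; inhibitors lower the polarisation; unlabelled MLL peptide was the positive control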
gsp agonist: agonists of gsp mutant (McCune-Albright syndrome); 340,000 tested, 0.13% active; Potency, µM (top dose mostly 76.9 µM), for the others: at the highest dose activation (cAMP increase), actives largely listed as activators; AID 624287; gsp mutant cells, cAMP HTRF, 30 min; control for the full effect not named in the record; active = well fitted activation curve with a large enough effect; inconclusive = small, poorly fitted or top-dose-only effect, or another doubt; inactive = no such curve, though single readings can be large or run the other way; cell line not stated here;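 note: phosphodiesterase inhibitor Ro 20-1724 added with compounds to block cAMP breakdown; potency is the fitted concentration of half-maximal effect; nearly all actives have a fitted effect of over 60% in size; about a fifth of the inactives were tested at one dose only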
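Cells stably selected in G418 were plated at 2000/well, grown 16-24 hr, then given compounds in DMSO with the PDE inhibitor […] (300 uM solution added) for 30 min at 37C; cAMP was read by HTRF.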
TRPML1 inh: blocks the human TRPML1 channel. Q9GZU1. TRPML1-inducible cells, Ca2+ dye fluorescence, FDSS; active compounds read low; inhibition of EC80 agonist-evoked calcium signal. activity change, negative = inhibition, % (concentration not given with the values). 390,000 tested, 0.02% active. AID 624415; in the data active means activity change below about -50%; inconclusive means about -30% to -50%; inactive means above about -30%;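 note: stimulus is agonist 54-4 at its EC80 concentration; % is set by controls: 0 for no effect and ±100 for the full control effect; the text of the record puts the active cut at -80%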
Target sequence (Q9GZU1 whole entry, looked up): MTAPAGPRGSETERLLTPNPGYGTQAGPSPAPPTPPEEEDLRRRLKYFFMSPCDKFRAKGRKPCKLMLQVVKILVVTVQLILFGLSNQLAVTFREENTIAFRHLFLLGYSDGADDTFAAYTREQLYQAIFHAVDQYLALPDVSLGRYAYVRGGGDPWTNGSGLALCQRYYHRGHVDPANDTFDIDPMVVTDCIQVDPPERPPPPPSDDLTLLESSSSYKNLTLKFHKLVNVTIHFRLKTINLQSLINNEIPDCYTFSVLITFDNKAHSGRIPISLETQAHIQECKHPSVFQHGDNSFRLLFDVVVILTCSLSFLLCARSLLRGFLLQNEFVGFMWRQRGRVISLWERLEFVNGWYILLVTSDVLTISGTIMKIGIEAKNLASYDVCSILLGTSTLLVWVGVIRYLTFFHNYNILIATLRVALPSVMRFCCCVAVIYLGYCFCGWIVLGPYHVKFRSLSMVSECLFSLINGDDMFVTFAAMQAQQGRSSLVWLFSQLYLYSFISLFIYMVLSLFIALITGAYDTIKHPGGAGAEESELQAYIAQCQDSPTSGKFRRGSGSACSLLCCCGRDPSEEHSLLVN
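Calcium fluorescence in TRPML1-DL cells induced overnight with Tet: a 110 s read after compound pin addition, then a 110 s antagonist read after challenge with 54-4 at 4 uM final (EC80).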
TRPV1 PAM: human TRPV1 potentiation | AID 540277 | potentiation, % at 8.33 µM | 320,000 tested, 0.02% active | TRPV1-expressing cells, Fluo-8 calcium influx, capsaicin EC20 potentiation; host cell line not named in the record; control for the full effect not named in the record; active means potentiation above 80%; inconclusive means 30% to 80%; inactive means below 30%; note: 0% is about no effect
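Cells expressing TRPV1 were dye-loaded with Fluo-8 and read kinetically: 10 s baseline, 3 min after compound (agonist portion), then 2 min after EC20 capsaicin (allosteric enhancer portion). Calcium-bound dye fluorescence at 480/520 nm.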
ClpP mod: qHTS Assay for Activators of ClpP. 340,000 tested, 1.9% active. purified B. subtilis ClpP, FRET peptide cleavage, 20 min. Potency, µM (doses to about 57.5 µM), inactives show top-dose activity change, negative = active; active = well fitted falling curve with a large enough effect; inconclusive = small, poorly fitted or top-dose-only effect; inactive = no such curve, though single readings can be large or run the other way; note: potency is the fitted concentration of half-maximal effect; the source files actives as falling curves though it sought activators and does not explain the sign; nearly all actives have a fitted effect of over 65% in size; many hits overshoot -100%
Target sequence (P80244 whole entry, looked up): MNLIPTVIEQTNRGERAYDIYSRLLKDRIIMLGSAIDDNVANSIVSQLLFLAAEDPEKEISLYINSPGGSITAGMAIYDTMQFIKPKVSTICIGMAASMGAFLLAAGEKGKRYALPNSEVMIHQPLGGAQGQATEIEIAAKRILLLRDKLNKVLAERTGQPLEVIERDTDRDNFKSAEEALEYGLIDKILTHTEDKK
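ClpP 10 microg/mL final, pH 8 Tris/KCl buffer with BSA, glycerol, Tween-20; compound pinned in; FRET-FV substrate; RT 20 min; Ex320/Em430; ΔFRET vs ADEP 5.8 microM, DMSO, no enzyme.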
Sfp inh: Sfp phosphopantetheinyl transferase inhibition. Biochemical Sfp PPTase activity, qHTS. Potency, µM, for inactives: max response, negative = inhibition, actives largely listed as inhibitors. Q9F4F7. 310,000 tested, 3.5% active; active = well fitted inhibition curve with a large enough effect; inconclusive = small, poorly fitted or top-dose-only effect, or another doubt; inactive = no such curve, though single readings can be large or run the other way;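 note: the enzyme is Sfp with the accession as filed and its product quenches rhodamine fluorescence; potency is the fitted concentration of half-maximal effect; 0% = enzyme reaction without inhibitor and -100% = no enzyme wells; top concentration of the series not given in the record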
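After 15 min at room temperature with compound, 15 nM Sfp received 5 uM rhodamine-CoA plus 12.5 uM BHQ-2-ybbR (50 mM Hepes pH 7.6, 10 mM MgCl2). Rate came from the fluorescence difference over 30 min, ex 525/em 598 nm.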
Active calls of the source: *; ? = inconclusive; / = not tested or not shown; & = joins results of further samples; [ ] = remark or other dose.

molecule	gsp antagonist	Menin-MLL FL inh	gsp agonist	TRPML1 inh	TRPV1 PAM	ClpP mod	Sfp inh
COc1cccc(NS(=O)(=O)c2cc(C)ccc2OC)c1	5%	1.7	?	4	-10	-2.4%	6%
CCc1noc(C)c1C(=O)N1CCN(S(=O)(=O)c2ccc(Cl)s2)CC1	12%	/	-5%[15.4 µM]	-6	0	/	/
Cc1ccc2nc(C)c3c(c2c1)N(c1ccc(F)cc1)CC3	17%	0.4	-4%[15.4 µM]	46	-18	/	-2%
Cc1ccc(NS(=O)(=O)c2ccc3c(c2)NC(=O)CO3)cc1	8%	/	-22%	-13	3	0.3%	8%
O=C(O)c1ccc(COc2c(F)c(F)c(F)c(F)c2F)o1	-18%	-1.4	12%	23	0	1.0%	17%
Cc1ccc(-c2nnc3c4ccccc4c(C)nn23)cc1S(=O)(=O)N1CCN(C)CC1	10%	/	-19%	5	/	-2.7%	/
CCOc1ccc(NC(=O)Nc2nc(SCC)ns2)cc1	-2%	2.8	-35%[inhibitor]	-12	1	/	3%
O=C(NCCN1C(=O)S/C(=C\c2cccnc2)C1=O)c1ccc(S(=O)(=O)N2CCCC2)cc1	?	0.5	23%	8	1	-1.1%	7%
COc1ccc(OC)c(Cc2nnc(CCC(=O)NCc3nc4ccccc4s3)o2)c1	6%	2.7	-13%[15.4 µM]	1	6	/	-14%
CN(C(=O)c1cccc(NC(=O)Cc2ccc(NC(=O)C3CCN(S(=O)(=O)c4cccc([N+](=O)[O-])c4)CC3)cc2)c1)C1CCCCC1	10%	/	/	-2	/	1.1%	/
CN(C(=O)COC(=O)c1cc(S(=O)(=O)N2CCOCC2)ccc1F)C1CCS(=O)(=O)C1 (stereo not drawn)	10%	/	-40%	18	-4	1.6%	/
CC(=O)Oc1cc2oc(=O)cc(C)c2cc1Cl	-8%	0.0	?	13	-5	/	13%
CCC1Cc2c(nc(N)c3c(N)nc(N4CCOCC4)c(C#N)c23)O1 (stereo not drawn)	-15%	1.4	-9%[15.4 µM]	-11	10	0.6%	10%
CC(C)(C)c1ccc(OCC(=O)NN2Cc3ccccc3C2=N)cc1	5%	-1.5	-5%	-3	-11	/	19%
CS(=O)(=O)c1ccc2nc(NC(=O)C3CC(=O)N(c4ccc(F)cc4)C3)sc2c1 (stereo not drawn)	-23%	12	2%[15.4 µM]	9	14	1.0%	-7%
O=C(COC(=O)CCNS(=O)(=O)c1ccc(Cl)cc1)Nc1ccccc1OC(F)F	1%	/	-27%	-8	7	-19%	/
COc1ccc(OC)c(NC(=O)COC(=O)C2CCC2)c1	8%	/	-4%	4	5	-3.1%	/
CC(C)c1c(C(=O)N/N=C/c2ccc(-c3ccccc3)cc2)nnn1-c1nonc1N	0%	/	1%	18	17	-2.0%	9%
COc1ccc(N2CCN(CCNC(=O)c3ccc4c(c3)[nH]c(=S)n3c5ccccc5nc43)CC2)cc1	3%	3.4	21%[15.4 µM]	-10	-3	-0.6%	20%
O=C(Cn1cnc([N+](=O)[O-])n1)NCCc1ccccc1	4%	1.2	-5%	7	17	/	3%
CCOC(=O)c1sc2nc(CC(=O)OC)nc(NCc3ccc(Cl)cc3)c2c1C	4%	0.0	12%	4	-1	14µM*	?
Cn1ccs/c1=N\S(=O)(=O)c1ccc(F)cc1	14%	-0.6	25%	-6	-35	-0.1%	8%
OCc1ccnc2oc3ccccc3c12	-6%	/	4%[15.4 µM]	-17	/	0.7%	/
CCc1cc2c(SCC(=O)N3CCCC3=O)ncnc2s1	-4%	/	?	-16	-12	-13%	/
O=C(CN1C(=O)c2cccnc2Oc2ccc(Cl)cc21)N1CCCC1	0%	/	27%	-11	-1	0.9%	7%
COc1ccc2oc(=O)c(C(=O)N3CCN(C(=O)c4ccccc4)CC3)cc2c1	-4%	-6.4	?	2	2	/	21%
COc1ccc(CCNC(=O)C2CCC(=O)N(CC3CCCCC3)C2)cc1 (stereo not drawn)	-5%	-0.1	-22%	11	-12	32µM*	2%
O=C(Cn1cnnn1)Nc1cccc([N+](=O)[O-])c1	6%	0.0	-32%[15.4 µM]	-3	7	-0.7%	13%
COCCNC(=O)C(c1c[nH]c2ccccc12)N(C(=O)c1snc(C(N)=O)c1N)c1cccc(OC)c1 (stereo not drawn)	7%	1.6	4%	-5	17	-5.4%	18%
CCN(CC)S(=O)(=O)c1ccc(C(=O)NCC2CCCCC2)cc1	7%	1.3	-2%	39	9	/	18%
CCN(CC)C(=O)C1=C(C)N(Cc2ccccc2)C(=O)C(CC(=O)NCCCCc2ccccc2)C1 (stereo not drawn)	/	/	4%	1	/	-0.7%	/
COc1cc(S(=O)(=O)Nc2ccccc2)ccc1NC=O	-15%	1.8	18%	-4	10	-0.3%	26%
Cc1c(NC(=O)CN(c2ccc(F)cc2)S(=O)(=O)c2ccccc2)c(=O)n(-c2ccccc2)n1C	7%	/	-20%	2	29	0.0%	-25%
CCOc1ccc(CCNc2nc3ccccc3n3cnnc23)cc1OCC	-3%	0.8	1%[15.4 µM]	-1	10	/	-3%
CNc1oc(-c2cccs2)nc1C#N	7%	-2.0	11%	-12	/	-48%	11%
CN(C)C(=O)c1coc2nc3ccccc3nc12	-27%	20	12%[15.4 µM]	-11	2	-0.2%	17%
Cc1cc(C(=O)N/N=C/c2sc(N3CCOCC3)nc2-c2ccccc2)c(C)o1	-21%	?	?	34	-9	/	-33%
CC(CN1CCOCC1)OC(=O)Cc1ccc(Cl)cc1 (stereo not drawn)	17%	0.2	-5%[15.4 µM]	-13	10	/	-8%
C=CCSc1nc2c(c(=O)[nH]c(=O)n2C)n1Cc1ccccc1	8%	4.2	14%	1	2	-3.6%	10%
O=C(CNC(=O)c1cccs1)NCC(=O)OCc1ccccc1Cl	-4%	-4.4	-11%	1	3	-7.6%	11%
Cc1ccc(-c2csc3n[nH]c(=S)n23)cc1	-9%	2.5	0%	-2	-9	-3.3%&0.2%	13µM*
CC(=O)c1c[nH]c(C(=O)Nc2ccc(N3CCCCCC3)cc2)c1	-11%	/	?	-22	-13	-4.5%	/
O=C(O)CCC(=O)Nc1cccc(-c2csc(-c3ccccc3)n2)c1	4%	0.9	?	-11	11	/	9%
CCN(CC(=O)NCc1ccc(F)cc1)CC(=O)Nc1cc(S(=O)(=O)N(C)C)ccc1C	2%	/	25%	-9	8	-0.8%	/
C=C1c2ccccc2NC(=O)N1c1ccc(C)cc1	3%	6.0	26%	-15	-1	-20%	0%
CC(C)CCn1nc(C(=O)OC(C)C(=O)NC(N)=O)c2ccccc2c1=O (stereo not drawn)	-6%	-7.3	-6%	6	19	-2.8%	3%
Cc1ccc(S(=O)(=O)CCC(=O)OCC(=O)Nc2cccc(S(=O)(=O)N3CCCCC3)c2)cc1	/	/	-3%	2	/	-0.1%	/
CC1CCN(C2(O)C(=O)Nc3ccc([N+](=O)[O-])cc32)CC1 (stereo not drawn)	-2%	-1.8	-38%[inhibitor]	8	-3	-4.6%	9%
CN1CC(=O)N(CC(=O)Nc2ccc(N(C)C)cc2)c2ccccc2C1=O	-10%	?	0%	4	4	-0.6%	?
CC(=O)Nc1ccc(S(=O)(=O)NC(C(=O)O)C(C)O)cc1 (stereo not drawn)	11%	3.9	9%	/	-1	0.6%	-4%
COc1ccc(N(CC(=O)NCCSCc2ccco2)S(=O)(=O)c2ccc(C)cc2)cc1	-27%	-0.2	-29%	-1	1	1.8%	-22%
CCOc1cc(C(=O)NC(=S)Nc2nc(C)cc(C)n2)cc(OCC)c1OCC	?	-2.3	-28%	42	-19	0.4%	?
CC(C)C(=O)OC1CCS(=O)(=O)c2sccc21 (stereo not drawn)	10%	-1.9	-21%	-3	12	/	2%
CCOC(=O)C1CCCN(C(=O)c2cc3c(-c4cccc(OC)c4)nn(C)c3s2)C1 (stereo not drawn)	0%	1.7	-5%	50	-13	-7.4%	-11%
O=C(N=C1SC2CS(=O)(=O)CC2N1c1ccc(F)c(Cl)c1)C1CC1 (stereo not drawn)	-5%	/	35%	11	10	-3.0%	-7%
CC(C)C(C)NC(=O)CSc1ccc(S(=O)(=O)N2CCOCC2)cn1 (stereo not drawn)	9%	/	11%	-1	-4	-2.8%	/
Cc1cc(C)n(CCN(C)C(=O)CCc2nnc(-c3ccc4c(c3)OCO4)o2)n1	-3%	-1.4	?	16	-6	/	7%
CC(Oc1ccccc1F)C(=O)NNC(=O)CC(C)c1ccccc1 (stereo not drawn)	9%	/	-3%[15.4 µM]	-1	15	-1.4%	/
O=C(CCCNC(=O)/C(=C\c1ccc(F)cc1)NC(=O)c1ccccc1)OCc1ccccc1	-11%	0.1	-36%[inhibitor]	19	11	-2.7%	-2%
O=c1cc(CN2CCN(c3ccccc3F)CC2)c2cc(O)c(-c3ccccc3)cc2o1	6%	3.6	2%[15.4 µM]	16	-2	-0.8%	6%

Continued.
molecule	gsp antagonist	Menin-MLL FL inh	gsp agonist	TRPML1 inh	TRPV1 PAM	ClpP mod	Sfp inh
CC(=O)NC(=S)Nc1ccc(NC(=O)COc2ccc(Cl)cc2)cc1	26%	1.4	14%	8	-13	-3.3%	-2%
O=C(CCCCn1c(=O)c2ccccc2n(CC(=O)NC2CCCC2)c1=O)NCc1ccco1	-7%	-1.6	3%	?	?	-16%	-16%
CCc1ccc(C(=O)NC(C(=O)NCC2CCCO2)C(C)C)cc1 (stereo not drawn)	1%	-0.2	?	-22	3	/	-4%
Cc1ccc(C(=O)Nc2ncccc2C)cc1S(=O)(=O)N1CCOCC1	7%	/	17%	13	-9	0.4%	/
